RN4220 kill – S. aureus RN4220 growth inhibition; hit rate 0.33% among 330,000; OD600, 16 h; inhibition, % (concentration not given with the values);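 active = z-score of -3 or lower and OD600 up to 0.18 on both plates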;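 also: plate controls were untreated cells for no effect and reference antibiotic for full effect; stock transfer was 100 nL into about 80 µL; one replicate is shown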
BJeLR lethal – BJeLR cell viability loss. BJeLR (HRASV12) viability, CellTiter-Glo ATP luminescence, 48 h; reference of the scale not given here. inhibition, % (test concentration not listed). hit rate 0.17% among 300,000. AID 1554;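 active = replicate mean above 50%; inconclusive = above 50% but judged a plate artefact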;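 also: 50 nL library stock added to about 25 µL; numbers are from one replicate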
Mtb hypoxia rep – inhibitors of hypoxia-regulated fluorescent reporter in Mycobacterium tuberculosis; fluorescence inhibition, % (no concentration beside the values); M. tuberculosis hypoxia-regulated fluorescent reporter, fluorescence; hit rate 0.1% among 300,000;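 active = 35 to 45% if threefold the growth effect, above 45% if 1.5-fold the growth effect; inactive = the rest, general growth blockers included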;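 also: wells of about 50 µL received 100 nL stock; 0% = vehicle wells and 100% = reference inhibitor wells; whole bacteria with a GFP reporter of the hypoxia response; strong numbers were not always called active; many hits fall short of the cut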
PrP 5UTR inh – inhibition of PrP 5' UTR reporter expression | inhibition, % (no concentration beside the values) | cell-based PrP 5' UTR mRNA reporter, plate reader | hit rate 0.35% among 340,000;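 active = every replicate at 50% or more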;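 also: 0 = median of the neutral control wells; tested in H4 reporter cells; numbers are from one replicate; inactives centre near -14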
ugtP null kill – growth inhibition of S. aureus ugtP deletion strain; S. aureus RN4220 ugtP deletion, OD600 growth, 16 h; some inactives read as strong as hits; growth inhibition, % (test concentration not listed); hit rate 0.54% among 330,000;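 active = z-score under -3 and OD600 up to 0.15 on both plates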;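 also: plate controls were untreated wells for no effect and antibiotic for full effect; wells of about 80 µL received 100 nL stock; the first replicate is given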
Bead autofluor – counter-screen for toxin protease inhibitors: compound fluorescence; compound autofluorescence counterscreen, microsphere flow cytometry; stronger effect = higher value; fluorescence intensity (no concentration beside the values); hit rate 3.1% among 360,000; AID 624483;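 active = at least 3 SD above the mean of all compounds, about 16000 in these data; inconclusive = too few beads counted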;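 also: 100 nL of 1 mM stock went into each well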
Mtb hypoxia rep growth – recorded beside Mtb hypoxia rep, whose call it bears; growth inhibition, %; measured here: M. tuberculosis growth (absorbance);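 0% = vehicle and 100% = reference antibiotic; read after six days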
Starred values were filed as active, the others as inactive; ? = inconclusive; . = not tested or not shown; & = joins results of further samples.

1. CCOC(=O)c1cccnc1NC(=O)c1ccncc1
2. Cc1nc2c(-c3ccc(F)cc3)c(C)nn2c(C)c1CCC(=O)N1CCC2(CC1)OCCO2
3. CCN(CC)CC(=O)N1CCCC(N2CCN(c3cccc(C(F)(F)F)c3)CC2)C1 (stereo not drawn)
4. CCCC(=O)N(c1ccc(OCC)cc1)C1C=CS(=O)(=O)C1 (stereo not drawn)
5. O=C(Cn1cnc2cc([N+](=O)[O-])ccc2c1=O)NCCc1ccc(Cl)cc1
6. COCCNC(=O)C1CCN(S(=O)(=O)N2CCC3(CC2)OCCO3)CC1
7. CCc1ccccc1-n1c(SCC(=O)Nc2ccc3c(c2)OCCO3)nc2[nH]ncc2c1=O
8. CCc1ccc(S(=O)(=O)N2c3ccc(C)cc3C3CN(C)CCC32)cc1 (stereo not drawn)

assay / entry,1,2,3,4,5,6,7,8
BJeLR lethal,-1,-2,1,1,6,-8,-1,.
Bead autofluor,2643,5617,4081,8968,4565,7828,11699,.
Mtb hypoxia rep growth,3,6,6,0,19,2,0,3
Mtb hypoxia rep,4,7,15,11,10,3,0,8
RN4220 kill,3.6,0.6,-0.8,8.8,11,1.7,1.8,3.5
PrP 5UTR inh,-31,-24,-14,-25,-3,-41,19,-26
ugtP null kill,1,2,5,14,-3,1,13,7

9. CNS(=O)(=O)c1cc(C(=O)NCc2ccco2)ccc1Cl
10. CC(=NNC(=O)c1cccc(S(=O)(=O)Nc2ccccc2Cl)c1)c1ccc(-n2ccnc2)cc1
11. O=C(Nc1cccc(S(=O)(=O)N2CCCC2)c1)c1cccc(OC(F)F)c1
12. O=C(c1ccccc1)N(Cc1ccc(F)cc1)C1CCS(=O)(=O)C1 (stereo not drawn)
13. CCCc1cc(=O)n2[nH]c(-c3ccc(C)cc3)cc2n1
14. CCOCCn1c(CN2CCN(c3ccc(F)cc3)CC2)nc2c1c(=O)n(C)c(=O)n2C
15. COc1ccc(CNC(=O)CCSCc2ccccc2Cl)c(OC)c1
16. CCNC(=O)C1OC(n2cnc3c(N)nc(NCCc4ccc(CCC(=O)O)cc4)nc32)C(O)C1O (stereo not drawn)

assay / entry,9,10,11,12,13,14,15,16
BJeLR lethal,-8,.,9,-9,-4,12,-4,.
Bead autofluor,2800,.,4840,10442,2863,10621,2694,.
Mtb hypoxia rep growth,.,0,-2,0,.,7,7,4
Mtb hypoxia rep,.,-8,7,0,.,-4,12,3
RN4220 kill,-2.4,13,-0.2,1.2,-1.8,-0.7,-1.6,2.9
PrP 5UTR inh,-32,.,-7,-11,-39,-7,-11,.
ugtP null kill,-2,13,-1,2,-8,-6,-2,-8

17. O=C1CNC(=O)/C1=C\c1ccc(O)cc1
18. CCN(CC(=O)NCc1ccc(F)cc1)Cc1nc2ccccc2c(=O)[nH]1
19. O=C(COc1ccccc1)NC(=S)Nc1cccc(NC(=O)c2ccccc2Cl)c1
20. COc1ccc(C(C)=NNC(=O)c2ccc(N(C)C)cc2)cc1
21. CCC(=O)c1cc(F)ccc1OCC(=O)Nc1ccc2c(c1)OCCO2
22. Cc1cc(C)c(NC(=O)CSc2ccc(-c3cccnc3)nn2)c(C)c1
23. COc1ccc(NC(=O)CSc2nnc(Cc3cccn3C)n2-c2ccc(OC)cc2)cc1
24. Cc1cccc(C(=O)NCC(=O)NC(C)c2ccc(-n3ccnc3)cc2)c1 (stereo not drawn)

assay / entry,17,18,19,20,21,22,23,24
BJeLR lethal,-8,1,2,.,.,-12,-7,5
Bead autofluor,2142,3624,2336,.,5754,4253,5081,?
Mtb hypoxia rep growth,0,7,5,-4,4,7,.,4
Mtb hypoxia rep,12,1,-2,-2,-1,12,.,3
RN4220 kill,4.7,0.8,-0.8,22,3.0,5.4,1.0,-3.4
PrP 5UTR inh,-26,-15,7,.,-3,-27,-32,-18
ugtP null kill,2,2,-11,16,-1,5,8,5

25. CC(=O)Nc1cc(C(=O)N2CCC3(CC2)OCCO3)ccc1Sc1ccc(C)cc1
26. C=CCNC(=O)c1onc(CSc2ccc(Cl)cc2)c1C(=O)O
27. COC(=O)C(NC(=O)CCC(=O)NC(C(=O)OC)c1ccccc1)c1ccccc1 (stereo not drawn)
28. C=C(C)C1CC=C(C)C(=NNC(=O)c2ccncc2)C1 (stereo not drawn)
29. CCOC(=O)NC(NC(=S)Nc1ccccc1OC)C(Cl)(Cl)Cl (stereo not drawn)
30. S=C(NCCN1CCOCC1)Nc1ccc(Cl)cc1Cl
31. COc1cccc(C(=O)Nc2cccc(NC(=O)c3ccccc3Cl)c2)c1
32. NCCCCC(C(=O)NCCCCCCCCCCC(=O)N1CCNCC1)n1cc(CCCC(=O)O)nn1 (stereo not drawn)

assay / entry,25,26,27,28,29,30,31,32
BJeLR lethal,-1,-1,7,.,-7,-4,-9,.
Bead autofluor,11201,3950,3425,4028,1995,8861,3258,.
Mtb hypoxia rep growth,4,7,6&7,.,9,8,-2,6
Mtb hypoxia rep,2,6,3&7,.,1,6,-1,7
RN4220 kill,5.7,14,2.1&1.1,3.7,2.6,1.4,4.0,2.5
PrP 5UTR inh,-14,-8,-7,-22,-1,-26,-6,.
ugtP null kill,-6,-9,3&-11,2,-4,4,0,1

33. CCOc1ccc(-n2c(O)c(/C=N/NC(=O)C3COc4ccccc4O3)c3ccccc3c2=O)cc1 (stereo not drawn)
34. OCCn1c(SCCOc2ccccc2F)nc2ccccc21
35. COc1ccc(CCC(=O)NCCc2ccc(Cl)cc2)cc1
36. CC(=O)N1CCC(O)(c2ccc3c(c2)OCO3)CC1
37. CCN(CC)S(=O)(=O)c1ccc(C(=O)Oc2cc(C)[nH]c(=O)c2[N+](=O)[O-])cc1
38. CC1CCN(S(=O)(=O)c2ccc(Cl)cc2)CC1
39. O=S(=O)(Nc1ncccn1)c1ccc(F)cc1
40. CCCCOc1ccc(C(=O)NCC(=O)NCCCn2nc(C)cc2C)cc1

assay / entry,33,34,35,36,37,38,39,40
BJeLR lethal,-3,-3,10,28,-2,-1,-2,.
Bead autofluor,8699,4822,3920,3536,2563,10888,.,2909
Mtb hypoxia rep growth,.,.,6,14,-3,14,-3,-1
Mtb hypoxia rep,.,.,9,3,-1,13,1,-1
RN4220 kill,.,0.6,1.8,3.7,5.2,5.9,4.3,-1.2
PrP 5UTR inh,-28,-11,-7,-21,-15,-10,1,-25
ugtP null kill,.,3,10,8,5,1,11,5

41. O=C(COc1ccccc1[N+](=O)[O-])Nc1cc(Cl)ccc1C(=O)O
42. CCCn1c(N)c(C(=O)CSc2nnc(C3CC3)n2Cc2ccccc2)c(=O)n(C)c1=O
43. COc1cccc(-c2nnc3n2N=C(c2cc(OC)ccc2OC)CS3)c1
44. COC(=O)[C@]1(C)N[C@H](CN(C)S(=O)(=O)c2ccccc2)[C@@H]2C(=O)N(Cc3ccccc3)C(=O)[C@@H]21
45. COc1ccc(OC)c(S(=O)(=O)N2CCC3(CC2)OCCN3S(=O)(=O)c2cccs2)c1
46. O=C(CCNC(=O)C1CCN(S(=O)(=O)c2ccc(F)cc2)CC1)NCc1ccncc1
47. O=C(Nc1cccc([N+](=O)[O-])c1)C12CC3CC(C1)CC(n1cnc([N+](=O)[O-])n1)(C3)C2
48. COc1ccc(-n2nc(C(=O)NCC(=O)Nc3cc(C)ccc3OC)c3ccccc3c2=O)c(OC)c1

assay / entry,41,42,43,44,45,46,47,48
BJeLR lethal,2,.,0,.,-1,2,-4,8
Bead autofluor,5117,3714,5429,3214,?,5553,4771,4601
Mtb hypoxia rep growth,11,5,3,-3,0,8,.,-2
Mtb hypoxia rep,10,5,0,-4,-2,11,.,-1
RN4220 kill,9.3,-0.8,7.7,3.5,1.9,2.0,-6.2,4.5
PrP 5UTR inh,-23,-22,-4,-13,-1,-5,-34,-4
ugtP null kill,6,-1,-11,2,4,5,35,4

49. O=[N+]([O-])c1ccc(NN=Cc2cccs2)nc1
50. NC(N)=NN=Cc1ccc2cccc(OCc3ccccc3)c2n1
51. OC(c1ccc(OCc2ccccc2)cc1)c1nnc(-c2ccccc2)o1 (stereo not drawn)
52. N#Cc1c(N2CCN(C(=O)c3ccccc3Cl)CC2)nc(-c2ccccc2)c2c1CCCC2
53. COc1ccccc1CN1CC(C(=O)NCc2ccc(C)c(F)c2)CCC1=O (stereo not drawn)
54. CC(=O)c1cccc(NC(=S)NC(=O)c2ccc(Br)cc2)c1
55. CC(=O)/C(N=Nc1ccc(-n2ccc(C(F)(F)F)n2)cc1)=C(\C)O
56. CCc1nnc(NC(=O)CSc2nc3ccc(OC)cc3[nH]2)s1

assay / entry,49,50,51,52,53,54,55,56
BJeLR lethal,.,.,0,-5,4,4,-5,1
Bead autofluor,.,.,2914,2565,6037,9488,?,2182
Mtb hypoxia rep growth,1,11,5,.,9,15,6,-2
Mtb hypoxia rep,-1,23,18,.,2,1,-11,-5
RN4220 kill,2.2,-0.9,-9.1,-0.8,2.9,-0.6,-6.0,8.1
PrP 5UTR inh,.,.,-13,-15,-12,-54,-21,-10
ugtP null kill,5,-17,-6,3,3,-9,15,4

Quoted from the listing.
entry 51 in ugtP null kill reads -6
entry 50 in RN4220 kill reads -0.9

From entry 43 up to 53, copied from above:
43. COc1cccc(-c2nnc3n2N=C(c2cc(OC)ccc2OC)CS3)c1
44. COC(=O)[C@]1(C)N[C@H](CN(C)S(=O)(=O)c2ccccc2)[C@@H]2C(=O)N(Cc3ccccc3)C(=O)[C@@H]21
45. COc1ccc(OC)c(S(=O)(=O)N2CCC3(CC2)OCCN3S(=O)(=O)c2cccs2)c1
46. O=C(CCNC(=O)C1CCN(S(=O)(=O)c2ccc(F)cc2)CC1)NCc1ccncc1
47. O=C(Nc1cccc([N+](=O)[O-])c1)C12CC3CC(C1)CC(n1cnc([N+](=O)[O-])n1)(C3)C2
48. COc1ccc(-n2nc(C(=O)NCC(=O)Nc3cc(C)ccc3OC)c3ccccc3c2=O)c(OC)c1
49. O=[N+]([O-])c1ccc(NN=Cc2cccs2)nc1
50. NC(N)=NN=Cc1ccc2cccc(OCc3ccccc3)c2n1
51. OC(c1ccc(OCc2ccccc2)cc1)c1nnc(-c2ccccc2)o1 (stereo not drawn)
52. N#Cc1c(N2CCN(C(=O)c3ccccc3Cl)CC2)nc(-c2ccccc2)c2c1CCCC2

assay / entry,43,44,45,46,47,48,49,50,51,52
BJeLR lethal,0,.,-1,2,-4,8,.,.,0,-5
Bead autofluor,5429,3214,?,5553,4771,4601,.,.,2914,2565
Mtb hypoxia rep growth,3,-3,0,8,.,-2,1,11,5,.
Mtb hypoxia rep,0,-4,-2,11,.,-1,-1,23,18,.
RN4220 kill,7.7,3.5,1.9,2.0,-6.2,4.5,2.2,-0.9,-9.1,-0.8
PrP 5UTR inh,-4,-13,-1,-5,-34,-4,.,.,-13,-15
ugtP null kill,-11,2,4,5,35,4,5,-17,-6,3

53. COc1ccccc1CN1CC(C(=O)NCc2ccc(C)c(F)c2)CCC1=O (stereo not drawn)

assay / entry,53
BJeLR lethal,4
Bead autofluor,6037
Mtb hypoxia rep growth,9
Mtb hypoxia rep,2
RN4220 kill,2.9
PrP 5UTR inh,-12
ugtP null kill,3

Next compounds:
57. CCCCn1c(N)c(NCC(C)C)c(=O)[nH]c1=O
58. COc1ccc(-c2nnc(SC)nc2-c2ccc(OC)c([N+](=O)[O-])c2)cc1[N+](=O)[O-]
59. Nc1cccc2c1C(=O)N(CC(=O)NC13CC4CC(CC(C4)C1)C3)C2=O
60. O=C(O)CSc1c(-c2ccccc2)c2cc(Cl)ccc2[nH]c1=O
61. C=CCOC(=O)/C=C/C(=O)NC(N)=O
62. CCN(CC)C(=O)[C@H]1C[C@H](CC(=O)NCc2cccc(C(F)(F)F)c2)C(=O)N2CCc3c([nH]c4cc(CCC(=O)N(C)C)ccc34)[C@]12C
63. CCN(CC)S(=O)(=O)c1ccc(NC2=NS(=O)(=O)c3ccccc32)cc1
64. CC1(C)C2CC=C(/C=N/NC(=O)c3ccc(Cl)cc3)C1C2 (stereo not drawn)

assay / entry,57,58,59,60,61,62,63,64
BJeLR lethal,14,3,1,-1,-10,.,-11,-4
Bead autofluor,6872,4407,4127,1882,2941,3684,5740,2663
Mtb hypoxia rep growth,0,-3,6,0,.,4,4,.
Mtb hypoxia rep,-3,-10,15,-9,.,-8,3,.
RN4220 kill,2.9,-1.0,4.4,0.2,.,1.6,2.5,.
PrP 5UTR inh,-24,7,-21,-20,3,-19,-33,-19
ugtP null kill,5,14,12,-22,.,5,-10,.

High-throughput results: PubChem BioAssay, several laboratories
